Screening results from PubChem.
BJeLR viability: kills HRASV12-expressing BJeLR cells | BJeLR (HRASV12) viability, CellTiter-Glo ATP luminescence, 48 h; reference of the scale not given here | inhibition, % (test concentration not listed) | actives 0.17% (n = 300,000) | AID 1554;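 active = replicate mean above 50%; inconclusive = above 50% but judged a plate artefact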;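 note: 50 nL library stock added to about 25 µL; numbers are from one replicate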
Sa ugtP lethal: kills S. aureus RN4220 lacking UgtP; actives 0.54% (n = 330,000); S. aureus RN4220 ugtP deletion, OD600 growth, 16 h; some inactives read as strong as hits; AID 1259309; growth inhibition, % (no concentration beside the values);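 active = z-score under -3 and OD600 up to 0.15 on both plates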;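 note: plate controls were untreated wells for no effect and antibiotic for full effect; wells of about 80 µL received 100 nL stock; the first replicate is given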
Sa RN4220 lethal: kills Staphylococcus aureus RN4220; S. aureus RN4220 growth, OD600, 16 h; AID 1259311; inhibition, % (concentration not given with the values); actives 0.33% (n = 330,000);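 active = z-score of -3 or lower and OD600 up to 0.18 on both plates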;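 note: plate controls were untreated cells for no effect and reference antibiotic for full effect; stock transfer was 100 nL into about 80 µL; one replicate is shown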
Mtb hypoxia rep: Mtb hypoxia fluorescent reporter inhibition. fluorescence inhibition, % (test concentration not listed). M. tuberculosis hypoxia-regulated fluorescent reporter, fluorescence. actives 0.1% (n = 300,000);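 active = 35 to 45% if threefold the growth effect, above 45% if 1.5-fold the growth effect; inactive = the rest, general growth blockers included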;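 note: wells of about 50 µL received 100 nL stock; 0% = vehicle wells and 100% = reference inhibitor wells; whole bacteria with a GFP reporter of the hypoxia response; strong numbers were not always called active; many hits fall short of the cut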
PrP 5UTR inh: inhibition of PrP 5' UTR reporter expression; cell-based PrP 5' UTR mRNA reporter, plate reader; actives 0.35% (n = 340,000); AID 488862; inhibition, % (concentration not given with the values);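 active = every replicate at 50% or more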;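 note: 0 = median of the neutral control wells; tested in H4 reporter cells; numbers are from one replicate; inactives centre near -14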
Autofluor counter: flagged as autofluorescent in microsphere protease counterscreen; compound autofluorescence counterscreen, microsphere flow cytometry; stronger effect = higher value; fluorescence intensity (concentration not given with the values); actives 3.1% (n = 360,000);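 active = at least 3 SD above the mean of all compounds, about 16000 in these data; inconclusive = too few beads counted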;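 note: 100 nL of 1 mM stock went into each well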
Mtb hypoxia rep growth: second read-out of Mtb hypoxia rep, no call of its own (marks repeat the call); growth inhibition, %; measured here: M. tuberculosis growth (absorbance);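 0% = vehicle and 100% = reference antibiotic; read after six days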
* hit, by the source's call; ? = inconclusive; . = not tested or not shown. Compounds as they come; about 4% have a hit in one of these screens.

SMILES	BJeLR viability	Sa ugtP lethal	Sa RN4220 lethal	Mtb hypoxia rep	Mtb hypoxia rep growth	PrP 5UTR inh	Autofluor counter
Cc1ccc(CSc2ncnc3c2cnn3Cc2ccccc2)cc1	2	90*	-4.0	12	14	-17	11225
COc1ccc(OCCCC(=O)OCC(=O)Nc2c(C)nn(-c3ccccc3)c2C)cc1	1	4	4.1	7	-4	-10	5091
Cc1cccc(-n2cnc3c(sc4nc(N5CCOCC5)c5c(c43)CCCC5)c2=O)c1	4	20	-2.2	11	-4	-9	5839
CCOc1cc(C=NNC(=O)c2cccnc2)ccc1OCC(N)=O	.	0	1.2	-9	-4	.	.
Cn1c(=O)c2c(nc(N3CCOCC3)n2CCCNC2=NCCCCC2)n(C)c1=O	-9	-1	-1.0	10	11	-26	5676
O=C(c1ccco1)N1CCN(C(=O)C2CC(=O)N(c3ccccc3)C2)CC1 (stereo not drawn)	-7	13	1.3	12	4	-18	4651
COc1cc(/C=C/C(=O)OC(C)C(=O)NC2CCCCC2C)cc(Cl)c1OC (stereo not drawn)	5	4	1.4	6	1	-10	5981
O=C(c1sc2cc([N+](=O)[O-])ccc2c1Cl)N1CCCCC1	-7	8	11	14	6	-27	9506
Cc1cccc(S(=O)(=O)NC2CCCCCCC2)c1	11	10	2.2	9	-8	-8	3496
CCOc1ccc(CN2CCN(Cc3cc4c(cc3Cl)OCO4)CC2CCO)cc1 (stereo not drawn)	8	8	3.2	16	8	-70	4085
CCSc1nnc(-c2cccc(S(=O)(=O)N(C)C)c2)n1-c1cc(OC)ccc1OC	-6	-3	3.1	-1	4	.	11143
CCCc1nc2ccccc2c(C(=O)OC2CCOC2=O)c1CC (stereo not drawn)	11	9	4.3	11	9	-2	2115
CC(C)Oc1ccc(C(=O)NC(=S)N2CCOCC2)cc1	-9	10	3.0	-5	3	-27	2490
CCOC(=O)C(C)(C)NS(=O)(=O)c1ccc(Cl)c([N+](=O)[O-])c1	6	-2	-4.6	6	7	7	2462
COCCCNC(=S)NNC(=O)C1CC1c1ccc(C(C)(C)C)cc1 (stereo not drawn)	1	-8	1.8	-2	5	-41	4125
CC(=O)c1cccc(NC(=O)CCS(=O)(=O)c2cccc3nsnc23)c1	-17	8	6.6	7	4	3	6269
O=C(O)CSC12CC3CC(C1)CC(C(=O)O)(C3)C2	3	-6	4.1	6	6	-19	3118
CNc1oc(-c2ccccc2Cl)nc1C#N	4	-2	-4.7	.	.	-19	2418
O=C(CCSCCC(=O)NN=Cc1ccccc1O)NN=Cc1ccccc1O	.	8	2.3	6	3	-46	3843
COc1ccc(S(=O)(=O)Nc2cc(SCC(=O)O)c(O)c3ccccc23)cc1	6	-2	22	15	3	-50	3176

Among those listed so far, these contain a nitro group on carbon.
SMILES	BJeLR viability	Sa ugtP lethal	Sa RN4220 lethal	Mtb hypoxia rep	Mtb hypoxia rep growth	PrP 5UTR inh	Autofluor counter
O=C(c1sc2cc([N+](=O)[O-])ccc2c1Cl)N1CCCCC1	-7	8	11	14	6	-27	9506
CCOC(=O)C(C)(C)NS(=O)(=O)c1ccc(Cl)c([N+](=O)[O-])c1	6	-2	-4.6	6	7	7	2462

Additional structures follow:
SMILES	BJeLR viability	Sa ugtP lethal	Sa RN4220 lethal	Mtb hypoxia rep	Mtb hypoxia rep growth	PrP 5UTR inh	Autofluor counter
COc1cc(-c2nc(-c3ccc4c(c3)-c3ccccc3S4(=O)=O)c(-c3ccccc3)[nH]2)cc(OC)c1OC	-4	-31	-8.2	-8	11	-6	3328
COC(=O)c1cnn(C(=O)c2cc(OC)ccc2Br)c1N	-5	-1	1.9	2	4	8	23297*
CC1CCCC(C)N1NC(=S)Nc1ccc(OC(F)F)cc1 (stereo not drawn)	-4	8	3.8	1	2	-18	2174
O=C(COc1coc(CN2CCCc3ccccc32)cc1=O)Nc1cccc([N+](=O)[O-])c1	4	2	3.0	7	2	-1	8039
O=C(/C=C/c1ccco1)NCC1COc2ccccc2O1 (stereo not drawn)	-1	2	3.1	5	-2	-8	?
O=c1[nH]c(/C=C\c2cccnc2)c([N+](=O)[O-])c(=O)[nH]1	8	10	3.2	-2	-1	-11	3967
O=C(Nc1ccc(S(=O)(=O)N2CCCC2)cc1)c1ccc([N+](=O)[O-])o1	.	-1	9.5	14	35	5	3660
CCOC(=O)c1ccc(N=C2SC(C(=O)NC)CC(=O)N2CCc2ccccc2)cc1 (stereo not drawn)	-6	-1	2.9	16	4	-18	4239
CC1C(=O)NN=C1C(=O)NN=Cc1ccco1 (stereo not drawn)	.	0	-0.4	-6	0	.	.
CCN(CC)c1ccc(/C=N/NC(=O)c2cnccn2)c(O)c1	34	.	.	.	.	35	3976
CCc1ccc2oc(=O)cc(CN3CCOCC3)c2c1	2	4	4.6	12	10	-5	2555
Cc1ccc(NS(=O)(=O)c2ccc3c(c2)NC(=O)CC(=O)N3)cc1C	8	-2	4.5	2	23	30	4328
CCC1CCCCN1C(=O)NC(=O)c1ccccc1 (stereo not drawn)	-6	2	2.7	9	9	-16	5495
COc1cccc(C2CC(c3ccccc3C)n3nc(N)nc3N2)c1 (stereo not drawn)	-4	5	4.4	.	.	-9	5776
CN(C)C(=O)CCc1ccc2c3c([nH]c2c1)[C@]1(C)[C@@H](C(=O)N2CCCCC2)C[C@H](CC(=O)NCCc2ccccn2)C(=O)N1CC3	.	11	2.8	1	0	-17	3371
CCN(CC)S(=O)(=O)c1ccc(OCC(=O)NCc2ccco2)cc1	-11	5	6.4	16	10	-6	4809
Cc1csc(Nc2ccccc2)[n+]1C	14	4	8.2	11	9	-14	4516
Cc1c(C2C(C#N)=C(N)OC3=C2C(=O)CCC3)cnn1C (stereo not drawn)	-11	-1	0.3	3	0	-10	2662
Cc1nn(CC(=O)NCc2ccccc2)c(=O)c2cccn12	2	5	3.3	14	-1	-17	5897
CSc1ncccc1C(=O)OCc1nc2ccsc2c(=O)[nH]1	2	4	0.0	3	7	-13	5383
CC(=O)Nc1ccccc1NC(=O)CC(C)=NNC(=O)c1ccc([N+](=O)[O-])c(Cl)c1	.	-2	4.0	7	8	.	.
CCc1ccc(CN2CCC(C(=O)Nc3ccc(Oc4ccccc4)nc3)CC2)o1	8	2	3.7	1	0	-17	5572
O=C(CCC(=O)Nc1ccccc1)NNC(=O)CCc1ccccc1	-3	-2	-0.4	-1	10	-24	4640
c1ccc(-c2nc(-c3ccc(-c4ccon4)s3)no2)cc1	-10	0	0.6	-4	-5	-96	6162
C/C(=N\Nc1ccc(S(=O)(=O)Nc2ccccc2)cc1[N+](=O)[O-])c1ccc(N2CCOCC2)cc1	2	.	.	.	.	1	3494
C/C(=N/NC(=O)c1nnn(-c2nonc2N)c1COc1ccccc1)c1ccc(O)cc1	5	.	.	.	.	-10	4409
CN1C(C(=O)NCc2cccc(Br)c2)CC2Cn3c(nc4ccccc43)C21 (stereo not drawn)	0	1	1.2	6	2	-9	4002
COc1cc(C2CC(=O)n3c(nc4ccccc43)S2)cc(OC)c1OC (stereo not drawn)	-3	4	7.4	1	0	.	.
O=C(NCc1nc2ccccc2[nH]1)C1=C[C@H](c2ccccc2)C[C@H](OCc2ccc(CO)cc2)O1	-10	.	.	.	.	6	2854
CN1CCC23c4c5ccc(O)c4O[C@@H]2[C@H](O)C=CC3C1C5 (stereo partly drawn)	.	10	1.7	.	.	-14	6048
CCCN1CCN(C(=O)Cn2cnc3ccc(S(=O)(=O)N4CCC(C)CC4)cc3c2=O)CC1	9	-4	4.5	10	4	-11	4556
C[C@@]12C(=O)Nc3cc(F)ccc3C(=O)N1C1c3cc(Br)ccc3OCC1C2c1ccccc1 (stereo partly drawn)	.	-5	-19	4	11	.	.
CC(C)Oc1cccc(C(=O)C2CCCN(C(=O)c3ccccn3)C2)c1 (stereo not drawn)	8	13	4.8	9	3	-16	4424
COC(=O)C1C2c3ccccc3OC1(C)N=c1s/c(=C/c3cnn(C)c3)c(=O)n12 (stereo not drawn)	-9	.	.	.	.	-13	2890
Cc1csc(NC(=O)c2cccnc2Cl)n1	2	0	0.9	17	3	-72	4321
CCc1cc(C(=O)Nc2ccccc2N2CCOCC2)sc1C	.	8	5.5	7	10	-10	3717
CN1C(=O)c2cccc3c(S(=O)(=O)N4CCCC4C(=O)O)ccc1c23 (stereo not drawn)	1	-2	2.0	13	4	-18	4721
CCC1(c2ccc(OC)cc2)NC(=O)N(CC(=O)c2ccc3c(c2)OCCO3)C1=O (stereo not drawn)	.	6	5.4	14	7	-12	3131
Cc1cc(O)c(C=Nc2cccc(Cl)c2)c(=O)o1	2	-2	5.5	-5	-4	-19	6401
COc1ccccc1Nc1nc(N)nc(CN2CCCCCC2)n1	-5	-2	2.1	.	.	-21	4033

Next section; the last 6 above are carried over.
SMILES	BJeLR viability	Sa ugtP lethal	Sa RN4220 lethal	Mtb hypoxia rep	Mtb hypoxia rep growth	PrP 5UTR inh	Autofluor counter
Cc1csc(NC(=O)c2cccnc2Cl)n1	2	0	0.9	17	3	-72	4321
CCc1cc(C(=O)Nc2ccccc2N2CCOCC2)sc1C	.	8	5.5	7	10	-10	3717
CN1C(=O)c2cccc3c(S(=O)(=O)N4CCCC4C(=O)O)ccc1c23 (stereo not drawn)	1	-2	2.0	13	4	-18	4721
CCC1(c2ccc(OC)cc2)NC(=O)N(CC(=O)c2ccc3c(c2)OCCO3)C1=O (stereo not drawn)	.	6	5.4	14	7	-12	3131
Cc1cc(O)c(C=Nc2cccc(Cl)c2)c(=O)o1	2	-2	5.5	-5	-4	-19	6401
COc1ccccc1Nc1nc(N)nc(CN2CCCCCC2)n1	-5	-2	2.1	.	.	-21	4033
CCN(CCn1cccn1)C(=O)CC1C(=O)NCCN1Cc1ccc(F)cc1 (stereo not drawn)	-3	-2	3.9	0	3	-14	4537
CCOC(=O)c1c(C)[nH]c(C(=O)NCCN2CCOCC2)c1C	4	0	2.3	16	0	-15	3850
O=C(NC1CCCC1)C1CCN(c2cnccn2)CC1	5	3	0.1	9	2	-35	4218
COC(=O)[C@H](C)NC(=O)Nc1ccccc1F	-5	-1	5.7	14	7	-2	10414
N#Cc1cc([N+](=O)[O-])ccc1NC(=O)COC(=O)CN1C(=O)C2CCCCC2C1=O (stereo not drawn)	.	-2	2.3	10	8	-7	3624
Cc1ccc(F)c(N=Cc2c(O)c3ccccc3oc2=O)c1	12	8	5.7	11	-1	-19	3971
CC(C)c1ccccc1OCCNC(=O)c1cncc(Br)c1	-6	5	7.4	9	17	2	4232
COc1cc(Cl)ccc1NC(=O)COc1ccccc1C(=O)NN	1	-1	-1.1	9	8	-19	3619
Cc1ccc(N2CCN(CC(O)COc3cccc4ccccc34)CC2)cc1 (stereo not drawn)	10	-3	-0.4	-6	-5	-9	3967
COC(=O)c1ccc(C(=O)OC)c(NC(=O)C2CCCO2)c1 (stereo not drawn)	-12	2	1.9	3	10	-7	3722
O=C(c1ccccc1)c1cc(-c2ccccc2)on1	4	4	12	-1	14	-3	3063
COCCCN1C2=C(C(=O)CC(C)(C)C2)C(c2ccc(OC)c(OC)c2)C2=C1CC(C)(C)CC2=O	7	5	2.5	1	-1	-21	3961
COC(=O)c1ccccc1NC(=O)COC(=O)CSc1nnc(N)s1	-1	-3	4.1	13	-1	-15	4443
Cc1ccc(OCc2n[nH]c(=S)n2N)cc1C	-9	2	-1.6	-4	1	-26	4096
Cc1cc(C)nc(NC(=O)c2ccc(Br)s2)n1	-6	7	2.1	21	5	-7	.
Cc1cc(N=Nc2ccc(Cl)cc2)cc(CN2CCOCC2)c1O	-6	17	-5.5	-1	-12	11	4346
CCC(C)(C)NC(=O)CN(C(=O)CNS(=O)(=O)c1ccccc1)c1ccc2c(c1)OCCO2	0	10	0.5	0	4	-25	3736
O=C(O)c1cc(S(=O)(=O)N2CCOCC2)ccc1N1CCCCC1	-5	4	-0.1	1	11	-11	3724
COc1cc(NC(=O)c2cccc(S(=O)(=O)N3CCCCC3)c2)cc(OC)c1OC	.	-2	-3.1	2	-5	-5	4384
CC(C)NC(=O)COC(=O)c1ccccc1Oc1ccccc1	-2	2	0.4	.	.	-68	2777
CCCN(CC1CC1)C(=O)COC(=O)c1oc2c(F)cccc2c1C	.	15	6.4	-7	-9	-7	6264
CC1CCN(CCCNC(=O)c2ccc(CS(=O)(=O)Cc3ccc(Cl)cc3)o2)CC1	-11	15	6.7	3	7	0	4827
